Assay outcomes (PubChem BioAssay)
RE007 growth inh: less growth of the S. pombe RE007 Vpr strain; AID 651644; S. pombe RE007 Vpr strain, BacTiter-Glo ATP luminescence, 24 h; control for the full effect not named in the record; Potency, µM (titrated, usually from 92.2 µM), inactives show top-dose activity change, negative = less growth; 360,000 compounds, 0.21% hits; active = well fitted falling curve with a large enough effect; inconclusive = small, poorly fitted or top-dose-only effect; inactive = no such curve, though single readings can be large or run the other way;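 also: % is scaled to controls: 0 for no effect and ±100 for the full control effect; nearly all actives have a fitted effect of over 50% in size; the assay follows cell death caused by Vpr and the record does not say whether a fall means rescue or toxicity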
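Fission yeast strain RE007, carrying one chromosomally integrated HIV-1 vpr copy, was seeded at OD 0.01 in PMG+AL medium with 23 nL pinned compound. After 24 h at 30 °C and 99% humidity, viability was read by BacTiter-Glo luminescence.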
StopGo reporter: lowers the luciferase signal of an FMDV 2A StopGo reporter; human cells with a luciferase reporter of 2A StopGo recoding; control for the full effect not named in the record; Potency, µM (titrated, usually from 57.9 µM), for the others: top-dose signal change, negative = less light; 410,000 compounds, 1.2% hits; active = well fitted falling curve with a large enough effect; inconclusive = small, poorly fitted or top-dose-only effect; inactive = no such curve, though single readings can be large or run the other way; tested in HEK293T cells; also: % is scaled to controls: 0 for no effect and ±100 for the full control effect; nearly all actives have a fitted effect of over 45% in size; luciferase light after 4 h
Cruzain inh noDet: inhibitors of Trypanosoma cruzi cruzain without detergent; purified cruzain, Z-FR-AMC fluorescence, no detergent; Potency, µM, for inactives: max response, negative = inhibition, most hits filed as inhibitors; 200,000 compounds, 2.3% hits; AID 1476;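 also: plate controls were enzyme without inhibitor for no effect and buffer without enzyme for full effect; nearly all actives have a fitted effect of over 40% in size; top concentration of the series not given in the record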
Target sequence (P25779 123-467 limits assumed): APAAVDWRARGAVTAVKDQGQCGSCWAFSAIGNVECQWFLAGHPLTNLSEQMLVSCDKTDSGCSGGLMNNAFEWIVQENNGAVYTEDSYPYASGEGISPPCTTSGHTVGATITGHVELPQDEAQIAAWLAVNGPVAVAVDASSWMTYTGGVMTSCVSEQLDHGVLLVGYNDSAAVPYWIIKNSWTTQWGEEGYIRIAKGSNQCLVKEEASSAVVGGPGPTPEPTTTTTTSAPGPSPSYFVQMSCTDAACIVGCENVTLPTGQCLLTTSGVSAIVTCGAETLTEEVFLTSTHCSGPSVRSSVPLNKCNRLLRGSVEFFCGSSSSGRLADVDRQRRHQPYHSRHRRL
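Purified cruzain at 1.5 nM, pre-incubated 15 min with compound at room temperature in 100 mM sodium acetate pH 5.5, 5 mM DTT, 0.00005% Triton X-100. Reaction started with 2 uM Z-FR-AMC; AMC fluorescence increase over 60 s gives rate.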
NS1 function inh: blocks influenza NS1 protein function; S. cerevisiae slowed by influenza A NS1, growth recovery by OD600; Potency, µM (series often up to 46.1 µM), inactives show top-dose activity, positive = more growth; 270,000 compounds, 0.4% hits; active means well fitted rising curve with a large enough effect; inconclusive means small, poorly fitted or top-dose-only effect; inactive means no such curve, though single readings can be large or run the other way; also: nearly all actives have a fitted effect of over 50% in size
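S. cerevisiae expressing influenza A NS1, grown in glucose, washed, then diluted 1:100 into pH 6.0 -URA galactose medium with 23 nl compound. Growth recovery read as OD600; NS1-free strain serves as control.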
Lassa entry inh: blocks Lassa virus binding to or entry into cells. AID 540256. Potency, µM (top dose mostly 37.9 µM), without a hit: at the highest dose activity change, negative = inhibition, hits mostly inhibitors. 300,000 compounds, 1.2% hits. Lassa virus pseudotype entry inhibition, cell reporter; control for the full effect not named in the record; active means well fitted inhibition curve with a large enough effect; inconclusive means small, poorly fitted or top-dose-only effect, or effect the other way; inactive means flat fitted curve, though single readings scatter; tested in HEK293 cells; also: % is scaled to controls: 0 for no effect and ±100 for the full control effect; nearly all actives have a fitted effect of over 50% in size; luciferase read-out
Cruzain Triton: blocks cruzain activity in presence of Triton detergent | P25779 | purified cruzain, Z-FR-AMC fluorescence, 0.01% Triton | Potency, µM, inactives show max response, negative = inhibition, usual class: inhibitors | 200,000 compounds, 0.43% hits | AID 1478;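 also: plate controls were neutral wells for no effect and buffer without enzyme for full effect; nearly all actives have a fitted effect of over 40% in size; top concentration of the series not given in the record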
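Read-out: AMC fluorescence (360 nm excitation, 450 nm emission), four reads over 2 min, first-to-third difference used. Conditions: cruzain 1.5 nM, Z-FR-AMC 2 uM, pH 5.5 acetate, 5 mM DTT, 0.01% Triton X-100.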
Marburg entry inh: blocks Marburg virus binding to or entry into cells; Marburg virus pseudotyped entry inhibition, cell reporter; control for the full effect not named in the record; about a third of the inactives were read at about 46 µM; Potency, µM (series often up to 37.8 µM), inactives show at the highest dose activity change, negative = inhibition, hits mostly inhibitors; 300,000 compounds, 1.8% hits; AID 540276; active = well fitted inhibition curve with a large enough effect; inconclusive = small, poorly fitted or top-dose-only effect, or effect the other way; inactive = flat fitted curve, though single readings scatter; tested in HEK293 cells; about a fifth of its hits are not listed in these tables; also: % is scaled to controls: 0 for no effect and ±100 for the full control effect; luciferase read-out
SARS PLpro yeast: inhibitors of SARS-CoV papain-like protease in yeast. S. cerevisiae expressing SARS-CoV PLpro, growth rescue; control for the full effect not named in the record. Potency, µM (titrated, usually from 32.9 µM), without a hit: at the top dose activity, positive = growth rescue. 330,000 compounds, 0.19% hits. AID 485353; active means well fitted rising curve with a large enough effect; inconclusive means small, poorly fitted or top-dose-only effect; inactive means no such curve, though single readings can be large or run the other way; also: 0% is about no effect; nearly all actives have a fitted effect of over 55% in size; growth read by luminescence after 48 h
* hit, by the source's call; ? = inconclusive; . = not tested or not shown; & = joins results of further samples; [ ] = remark or other dose. Unless noted, calls follow the shape of the dose curve; as a rule, active = well fitted curve in the direction sought with a large enough effect; inconclusive = small, poorly fitted or top-dose-only effect, or another doubt; inactive = no such curve, though single readings can be large; an effect the other way counts as inactive or inconclusive. Potency is read from the fitted curve at half-maximal effect.

compound,RE007 growth inh,StopGo reporter,Cruzain inh noDet,NS1 function inh,Lassa entry inh,Cruzain Triton,Marburg entry inh,SARS PLpro yeast
CS(=O)(=O)NCCSCc1c(F)cccc1Cl,12%,-12%,-8%,-5%,-4%,2.5%,2%,3%
CN(C)C(=S)Nc1ccc2c(c1)OCO2,8%,0%,.,.,30%[46.1 µM],.,?,-1%
CCSc1nc2nc(C)cc(C)n2n1,11%,-10%,-4%,1%,19%,-0.1%,9%,-1%
COc1ccc(C(=O)N/C(=C/c2cccc3ccccc23)C(=O)NCCc2c[nH]c3ccccc23)cc1OC,8%,-4%,?,11µM*,-25%,-5.5%,?,23%
CCN1C(=O)[C@H]2[C@H]3CN=C(SCc4ccccc4)N3[C@@](Cc3ccccc3)(C(=O)OC)[C@H]2C1=O,-7%,-6%,.,.,.,.,0%,1%
COc1ccc(OCc2nc3ccccc3n2C(C)c2ccccc2)cc1 (configuration not stated),.,-20%,4%,.,18%[46.1 µM],-10%,17%[46.1 µM],.
COC(=O)CN(C)C(=O)c1ccccc1OC1CCN(S(C)(=O)=O)CC1,-29%,9%,.,-2%,18%[46.1 µM],.,6%[46.1 µM],2%
CCn1nccc1C(=O)Nc1ccc(C)c(C)c1,-27%,20%,.,-1%,.,.,.,-8%
Cc1cccc(NC(=O)CSCC(=O)NNC(=O)c2ccoc2C)c1,0%,9%,.,6%,12%,.,?,9%
CCOC(=O)c1nnc2cc(C)nn2c1C,-7%,5%,.,6%,.,.,.,-4%
CNS(=O)(=O)c1cccc(C(=O)OCC(=O)Nc2cc(F)ccc2F)c1,3%,15%,.,.,-5%,.,-2%,-2%
CC(C)c1onc(C(=O)N(C)C2CCCCC2)c1[N+](=O)[O-],4%,13%,.,.,26%[46.1 µM],.,19%[46.1 µM],-6%
CCc1ccccc1NC(=S)N(CCCN1CCOCC1)Cc1cccs1,5%,13%,12%,1%,-15%,-3.4%,-1%,?
COCCNC(=O)CSc1nc(-c2ccccc2)[nH]c1-c1ccc(OC)cc1,.,-7%,-13%,.,?,-0.5%,1%[46.1 µM],.
CCNCC(O)c1cccc(O)c1 (configuration not stated),-1%[18.4 µM],-20%,.,-1%,.,.,.,5%
C=CCSc1nnc(-c2ccccc2N=Cc2c(C)[nH]n(-c3ccccc3)c2=O)c(=O)[nH]1,-2%,0%,?,-72%,6%,-12%,?,-2%
COc1ccccc1NC(=O)CCN1CCN(c2ccc(Cl)cc2)CC1,-20%,?,.,-20%,.,.,.,7%
Fc1ccc(CSc2nsc(SCc3ccc(F)cc3)n2)cc1,0%,?,-2%,4%,-28%,-2.1%,-3%,-6%
COC(=O)c1ccc(NC(=O)c2cccn(Cc3ccccc3C)c2=O)cc1,.,?,7%,.,2%[46.1 µM],1.0%,.,.
CN(CC(=O)Nc1cccc(F)c1)C(=O)c1cn(-c2ccccc2)nc1-c1ccccc1,10%,-11%,.,-10%,.,.,.,-3%
Cc1c(C(=O)N2CCOCC2)c(S(=O)(=O)Nc2ccc(OC(F)(F)F)cc2)c(C)n1C,9%,-9%,.,0%,.,.,.,12%
COc1ccc(-c2csc(NC(=O)C3CSC4(C)CCC(=O)N34)n2)cc1OC (configuration not stated),4%,-1%,.,.,-3%,.,0%,-6%
Cc1ccc(-n2nnc3c(=O)n(CC(=O)NCC4CCCO4)cnc32)cc1 (configuration not stated),10%,-18%,-10%,2%,15%[14.3 µM],-0.8%,-1%,-7%
CCC1(c2ccccc2)SC(=O)NC1=O (configuration not stated),-10%,0%,.,.,11%,.,?,.
O=C(c1ccc(S(=O)(=O)N2CCCC2)cc1)N1CCCc2ccccc21,27%,-16%,-8%,-54%,3%,3.6%,-16%[46.1 µM],11%
O=C(OCC(=O)N1CCCCCC1)c1ccc(S(=O)(=O)N2CCOCC2)cc1,15%,8%,.,.,-2%,.,-3%[46.1 µM],2%
CC12CCC(=O)N1C(C(=O)NNC(=O)COc1cccc(C(F)(F)F)c1)CS2 (configuration not stated),-7%,7%,.,.,7%,.,11%,5%
Cc1ccc(Nc2ncnc3c2oc2ccccc23)cc1,1%,0%,-5%,-63%,-3%,-5.8%,?,-16%
O=C(CSc1ncnc2c1oc1ccccc12)c1cccs1,-2%,49%[activator],-7%,-4%,29%,1.9%,?,2%
Cc1cccc(C)c1NCc1n[nH]c(=S)n1-c1ccccc1,-9%,2%,.,3%,2%,.,-6%[46.1 µM],0%
COc1ccccc1C(=O)NNC(=S)NC(=O)c1cc(OC)c(OC)c(OC)c1,12%,0%,.,-4%,.,.,.,0%
CC1CCN(C(=S)c2ccc3c(c2)OCO3)CC1,4%,11%,4%,10%,-6%,4.9%,18%,-8%
O=C(COC(=O)CSc1nnc(-c2ccc(Cl)cc2)o1)NCc1ccc2c(c1)OCO2,-1%,-16%,?,-21%,-8%,-5.2%,1%&1%[46.1 µM],-3%
Cc1cc(C#N)c(C)c(SCc2[nH]nc3c2C(c2ccccc2)C(C#N)=C(N)O3)n1 (configuration not stated),7%[3.69 µM],3%,-17%,11%,-16%,-18%,?,5%
COc1cc(OC)cc(C(=O)NCCSCc2ccco2)c1,.,.,11%,-7%,.,0.5%,-1%,4%
CN(C)c1ccc(CN2CCc3nc(N4CCN(c5ccccn5)CC4)ncc3C2)cc1,.,7.9µM*,-4%,.,?,-4.0%,.,.
Cc1ccc(SCCNC(=O)C(CO)(CO)CO)cc1,4%,.,9%,10%,-3%,2.6%,7%,5%
CCOc1ccc2nc(N3CCCN(C(=O)Nc4ccccc4C)CC3)c(C#N)cc2c1,45%,-22%,-15%,-52%,-1%,4.8%,-27%,-9%
O=c1nc(Nc2ccc([N+](=O)[O-])cc2)[nH]c(=O)[nH]1,-20%,-14%,.,0%,2%[46.1 µM],.,20%[46.1 µM],0%
CC(=O)c1ccc(OCCCC(=O)NC2CCC(C)CC2)cc1 (configuration not stated),-19%,-2%,.,13%,6%,.,1%[46.1 µM],-1%
CCN(CC)S(=O)(=O)c1ccc(N2CCOCC2)c(NC(=O)CC23CC4CC(CC(Br)(C4)C2)C3)c1,-2%,-22%,?,-5%,-11%&0%,-3.4%,6%&6%,?
CCN(C(=O)c1cn(-c2ccc(OC)cc2)c(=O)c2ccccc12)c1cccc(Cl)c1,.,-9%,-6%,.,1%[46.1 µM],-4.8%,.,.
CN1c2ccccc2C(O)=C(C(=O)Nc2ccccc2)S1(=O)=O,17%,-13%,5%,-28%,0%,5.7%,?,2%
Cc1cc(N2CCCCCC2)n2nc(C)c(-c3ccccc3)c2n1,-9%,-19%,.,-5%,.,.,.,2%
Cc1ccc(NC(=O)CN2C(=O)COc3ccc(S(=O)(=O)N4CCCC4)cc32)c(C)c1,-19%,19%,.,4%,0%[46.1 µM],.,4%[46.1 µM],0%
CCOC(=O)c1sc(NC(=O)CN2C(=O)NC3(CC(C)CC(C)(C)C3)C2=O)c(C(=O)OCC)c1C (configuration not stated),32%,-17%,-13%,12%,-6%,-5.1%,-30%,17%
CNC(=O)/C(C#N)=c1\s/c(=C/C(=O)OC)c(=O)n1-c1ccccc1,15%,-3%,3%,7%,-3%,3.0%,-15%,-1%
CCc1ccc(CNC(=O)c2cc3n(n2)CCCN(Cc2ccccc2)C3=O)cc1,.,-17%,25%,.,.,-5.0%,?,.

In the list so far, 8 contain an aryl methoxy group:
compound,RE007 growth inh,StopGo reporter,Cruzain inh noDet,NS1 function inh,Lassa entry inh,Cruzain Triton,Marburg entry inh,SARS PLpro yeast
COc1ccc(C(=O)N/C(=C/c2cccc3ccccc23)C(=O)NCCc2c[nH]c3ccccc23)cc1OC,8%,-4%,?,11µM*,-25%,-5.5%,?,23%
COc1ccc(OCc2nc3ccccc3n2C(C)c2ccccc2)cc1 (configuration not stated),.,-20%,4%,.,18%[46.1 µM],-10%,17%[46.1 µM],.
COCCNC(=O)CSc1nc(-c2ccccc2)[nH]c1-c1ccc(OC)cc1,.,-7%,-13%,.,?,-0.5%,1%[46.1 µM],.
COc1ccccc1NC(=O)CCN1CCN(c2ccc(Cl)cc2)CC1,-20%,?,.,-20%,.,.,.,7%
COc1ccc(-c2csc(NC(=O)C3CSC4(C)CCC(=O)N34)n2)cc1OC (configuration not stated),4%,-1%,.,.,-3%,.,0%,-6%
COc1ccccc1C(=O)NNC(=S)NC(=O)c1cc(OC)c(OC)c(OC)c1,12%,0%,.,-4%,.,.,.,0%
COc1cc(OC)cc(C(=O)NCCSCc2ccco2)c1,.,.,11%,-7%,.,0.5%,-1%,4%
CCN(C(=O)c1cn(-c2ccc(OC)cc2)c(=O)c2ccccc12)c1cccc(Cl)c1,.,-9%,-6%,.,1%[46.1 µM],-4.8%,.,.

An unsorted share of the library; about 4.7% have a hit in one of these screens.
